Source: PubChem
Env fusion inh: HIV envelope-mediated fusion inhibition | HeLa-JRFL Env/CEM21 cell fusion, luciferase | inhibition, % at 12.3 µM | hit rate 1.1% among 360,000 | AID 651610;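 active = mean replicate inhibition score of at least 50 and every replicate individually at or above 50; inconclusive = only one of the two criteria met; inactive = mean below 50 and not all replicates reaching 50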;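 note: 0% = plate neutral controls and 100% = maraviroc near 300 nM; one replicate is shown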
Yeast UUG start: modulators of start codon recognition fidelity in yeast; S. cerevisiae UUG-firefly luciferase reporter, luminescence/redox ratio; AID 602363; hit rate 0.13% among 350,000; activity score, % at 18.7 µM;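 active = replicate mean at a twofold rise or more, about +100% in these data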;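 note: firefly luciferase made from a UUG start codon reports start codon fidelity; reporter light over untreated wells divided by growth signal over untreated wells; some hits fall short of that in this replicate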
CSC inhib: blocks cancer stem cells; AID 2717; hit rate 1.1% among 300,000; inhibition, % at 7.5 µM; cancer stem cell-like cells viability, luminescence;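 active = mean at 75% or more and at least half the replicates too; inconclusive = mean and replicates disagree; tested in HMLE shEcad cells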;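 note: 0% = median of negative and 100% = median of positive control wells; the first replicate is given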
MT1-MMP act inh: blocks activation of human MT1-MMP; P50281; GFP/RFP ratio change, % at 20 µM; HT1080 RFP-PRO-GFP cells, GFP/RFP ratio fluorescence, overnight; percent of plate control window, DMSO zero; hit rate 0.061% among 360,000;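 active = GFP/RFP ratio change of at least 30% with cell ATP level not reduced by more than half and red fluorescence within 50% of control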; note: strong numbers were not always called active
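Assay system: RFP-PRO-GFP reporter HT1080 cells; read-out basis: GFP/RFP fluorescence ratio; benchmarks: DMSO wells and RFP-L50D-GFP cells; doses: 20 µM single dose, 1% DMSO; schedule: overnight cell settling, then overnight compound exposure, 37 °C, 5% CO2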
eIF4H inh: inhibitors of RNA binding by human eIF4H | Q15056 | eIF4H fluorescence polarization binding assay | inhibition, % at 35 µM | hit rate 0.94% among 290,000 | AID 2012;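 active = 50% or more with normal probe brightness, or confirmed in later tests; inconclusive = above 50% with abnormal brightness, or retests that disagree; inactive = below 50% or failed in later tests; about a fifth of its hits are not listed in these tables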;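 note: calls also rest on retests at 20 µM and on dose response follow-up; 0% = protein and probe with vehicle and 100% = probe without protein; strong numbers were not always called active; many hits fall short of the cut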
Rce1 inh: inhibitors of yeast Ras-converting enzyme | Q03530 | yeast membranes, quenched prenylated peptide cleavage fluorescence | calls only | hit rate 0.27% among 290,000 | AID 2563;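 active = fall in fluorescence gain of 50% or more versus controls, with final raw signal at or below 3038400; inconclusive = same 50% fall but final raw signal above 3038400; inactive = fall in fluorescence gain under 50%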;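 note: plate controls were neutral control wells for no effect and wells lacking membranes for full effect; tested at 10 µM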
PABP polyA inh: blocks human PABP binding to poly(A) RNA | P11940 | fluorescence polarization | inhibition, % at 35 µM | hit rate 1% among 290,000 | AID 2014;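 active = 50% or more with normal probe brightness, or confirmed in later tests; inconclusive = above 50% with abnormal brightness, or retests that disagree; inactive = below 50% or failed in later tests; about a fifth of its hits are not listed in these tables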;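 note: calls also rest on retests at 20 µM and on dose response follow-up; controls were probe without protein and protein plus probe with vehicle; some compounds called inactive have numbers as strong as hits; many hits fall short of the cut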
Target sequence (P11940 whole entry, looked up): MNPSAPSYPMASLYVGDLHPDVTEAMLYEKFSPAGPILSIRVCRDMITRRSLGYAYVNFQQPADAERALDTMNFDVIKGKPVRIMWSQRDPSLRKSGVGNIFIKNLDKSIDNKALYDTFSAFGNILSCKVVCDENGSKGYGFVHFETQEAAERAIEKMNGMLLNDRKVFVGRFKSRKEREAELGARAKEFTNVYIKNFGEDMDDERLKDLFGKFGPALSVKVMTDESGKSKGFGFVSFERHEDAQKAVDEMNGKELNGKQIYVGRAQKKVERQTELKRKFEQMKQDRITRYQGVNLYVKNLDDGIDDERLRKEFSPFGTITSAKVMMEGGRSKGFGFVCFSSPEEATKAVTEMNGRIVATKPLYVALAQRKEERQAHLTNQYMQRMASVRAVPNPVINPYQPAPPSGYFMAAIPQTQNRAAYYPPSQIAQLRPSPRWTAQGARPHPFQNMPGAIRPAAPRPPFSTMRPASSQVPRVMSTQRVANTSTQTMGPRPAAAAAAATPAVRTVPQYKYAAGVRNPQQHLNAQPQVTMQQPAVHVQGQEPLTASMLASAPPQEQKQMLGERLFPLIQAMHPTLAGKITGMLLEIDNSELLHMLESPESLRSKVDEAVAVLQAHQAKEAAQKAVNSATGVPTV
eIF4H inh retest: recorded beside eIF4H inh, whose call it bears; inhibition, %; compound at 20 µM; confirmation average;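 mean of two retest wells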
PABP polyA inh retest: second read-out of PABP polyA inh, no call of its own (marks repeat the call); inhibition, %; compound at 20 µM; confirmation repeats;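 mean of two retest wells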
MT1-MMP act inh RFP: further read-out of MT1-MMP act inh, marked with its call; RFP signal change, %; measured here: RFP expression control read;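 0 = vehicle wells; hits needed this value within 50% of zero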
* hit, by the source's call; i = inactive; ? = inconclusive; nt = not tested or not shown.

SMILES	Env fusion inh	Yeast UUG start	CSC inhib	MT1-MMP act inh	MT1-MMP act inh RFP	eIF4H inh	Rce1 inh	PABP polyA inh	others
CN1CCN(C/C(=C2/N=C(c3ccccc3)OC2=O)N(C)C)CC1	-8	-14	8	3	2	-9	i	-3
COc1cc2c(cc1OC)C(NNC(=O)c1ccc(Br)o1)=NC(C)(C)C2	2	-11	-3	2	-1	-24	i	-3
O=C(COc1ccccc1C(=O)O)Nc1nc2ccc([N+](=O)[O-])cc2s1	-7	-13	22	-6	-7	-4	i	2
COc1ccccc1C(=O)NC(=O)COC(=O)c1cccc(C)c1O	nt	-13	-12	2	2	nt	i	nt
COCC(O)CSc1c([N+](=O)[O-])nc(C)n1Cc1ccc(OC)c([N+](=O)[O-])c1 (stereo not given)	nt	-22	-5	8	4	4	i	-1
CCN1CCCC1CNC(=O)c1cn(C)c2ccc(S(=O)(=O)N3CCCCCC3)cc2c1=O (stereo not given)	nt	1	nt	-9	-3	-3	nt	14
CCCOc1ccc(F)cc1-c1cc(C(=O)NCc2ccccc2)[nH]n1	-12	-9	nt	-4	-7	nt	nt	nt
Cc1nc(C(C)N(C)Cc2nc(-c3ccc4c(c3)OCO4)no2)c(C)s1 (stereo not given)	0	nt	2	1	-5	-10	i	5
Cc1ccc(CN(C(=O)c2ccco2)C(C(=O)NC2CCCC2)c2cccnc2)cc1 (stereo not given)	20	-13	-4	-4	-2	1	i	-2
CC(C)C(NS(=O)(=O)c1cccc2nsnc12)C(=O)NC1CCCCC1 (stereo not given)	-4	-20	9	-2	4	1	i	12
CNC(=S)N/N=C/c1cn(Cc2ccc(F)cc2)c2ccccc12	12	nt	60	7	-8	1	i	1
CCCn1c(SCC(=O)c2cc(C)c(C)cc2C)n[nH]c1=O	nt	nt	19	6	-2	5	i	12
O=C(c1cccs1)N1CCN(c2ncccn2)CC1	i	-19	-5	3	1	-3	i	-10
CSC1=NCCN1C(=O)c1ccco1	1	-13	-5	-2	4	0	i	0
C#CC(C)(CC)NC(=O)Cn1nnc(-c2cccc(C(F)(F)F)c2)n1 (stereo not given)	31	-20	-2	6	2	4	i	13
Cc1ccn2c(C=O)c(-c3ccc(F)cc3)c(C=O)c2c1	-4	nt	-4	-4	-3	31	nt	7
Cc1noc(/C=C/N(C)C)c1S(=O)(=O)N1CCCC(C(=O)Nc2ccc(F)cc2F)C1 (stereo not given)	4	-12	-18	-6	0	4	i	6
Cc1ccc(N(C(=O)c2csnn2)C(C(=O)NC(C)(C)C)c2cccs2)cc1 (stereo not given)	nt	-15	0	1	-1	?	i	?
COc1ccccc1C(=O)c1c(C)c(CCC#N)n2ccccc12	-7	-3	-8	-2	1	-1	i	6
Cc1ccccc1NC(=O)Nc1ccccc1C(N)=O	11	nt	-2	-3	3	-8	i	-10
Cc1cccc(NC(=O)c2cc(S(=O)(=O)N3CCCC3)cn2C)c1	7	-15	8	0	0	-7	i	2
CCCSc1nnc2nc3c(nn12)c1ccccc1n3C	-17	-8	-18	0	2	-1	i	5
Cc1nc(Nc2cnc(/C=C/c3cc(C(=O)Nc4cccc(C(F)(F)F)c4)ccc3C)cn2)cc(N2CCNCC2)n1	nt	nt	136*	nt	nt	-28	i	-51
Cc1ccccc1-c1cnc(C(O)c2ccc(F)cc2)[nH]1 (stereo not given)	-32	-19	nt	0	-7	nt	nt	nt
COC(=O)C1C(=O)NC(SC)=C(C#N)C1c1ccccc1F (stereo not given)	-35	-17	-3	1	11	3	i	0

The list continues:
SMILES	Env fusion inh	Yeast UUG start	CSC inhib	MT1-MMP act inh	MT1-MMP act inh RFP	eIF4H inh	Rce1 inh	PABP polyA inh	others
Cc1ccccc1N1CCN(Cc2c(C#N)c3ccccc3n2C)CC1	14	nt	13	4	0	-8	i	-1
CCOc1ccc(NC(=O)CN(C)C(=O)C(C)Oc2ccc(Cl)cc2)cc1OCC (stereo not given)	-98	-5	nt	6	1	nt	nt	nt
COc1cc(C(Nc2ccc3c(c2)OCO3)C(=O)NC2CCCCC2)cc(OC)c1OC (stereo not given)	-78	10	nt	-4	-2	2	i	7
Cc1cc(C)c2c(N)c(C(=O)NN3CC(=O)N(c4ccccc4F)CC3=O)sc2n1	nt	-15	-9	4	2	0	i	-7
O=C(NCCc1ccccc1F)C1CCC(=O)N(Cc2ccc(Cl)cc2)C1 (stereo not given)	3	-10	nt	3	4	2	i	4
CSc1ccc(CNC(=O)c2ccc(NC(=O)C3=CSCCO3)cc2)cc1	-6	-19	11	4	2	-4	i	-5
CCOC(=O)C1=CN(Cc2cccc(-c3cccnc3)c2)S(=O)(=O)N(CC)C1C (stereo not given)	-18	1	nt	-9	-18	nt	nt	nt
Fc1ccccc1CNc1ncnc2sccc12	39	-17	7	9	-25	-11	i	9
CC(C)n1c(SCc2cc(=O)[nH]c3ccccc23)nc2c1c(=O)n(C)c(=O)n2C	nt	-19	-17	-9	-2	4	i	-1
CCOc1ccc(NC(=O)CCN2C(=O)c3ccccc3C2=O)cc1	8	-16	-25	-2	4	-3	i	0
CCC(CC)NC(=O)Cc1ccc(F)cc1	-4	-15	-13	2	4	11	i	1
O=C(c1ccc(CS(=O)(=O)Cc2ccc(Cl)cc2)o1)N1CCCC1	30	-13	-11	3	0	-14	i	-13
CCC(=O)N1CCC2(CC1)Oc1ccc(F)cc1C(=O)C21CC(c2ccccc2)=NO1 (stereo not given)	-31	11	4	5	3	-9	i	-2
CC1(C)Cc2c(sc(NC(=O)C(=O)N3CCN(CCO)CC3)c2C(N)=O)CO1	-5	-17	-7	-4	1	-6	i	8
NC(=O)COC(=O)CNC(=O)c1ccc(Cl)cc1	6	-3	-3	3	4	-7	i	-2
O=C(CNC(=O)c1cccs1)N/N=C/c1c(F)cccc1Cl	1	-11	-5	4	1	-4	i	-4
CCN(CC)c1ccc(C=C(c2nnnn2-c2ccc(C)cc2)c2nnnn2-c2ccc(C)cc2)cc1	?	nt	8	-40	-5	53*	nt	-20	eIF4H inh retest=53*;PABP polyA inh retest=35
COc1ccc(S(=O)(=O)N2CCCCC2)cc1NC(=O)[C@@H]1CCCN1C(=O)c1cccs1	nt	-9	-2	8	-3	nt	nt	nt
CCS(=O)(=O)C1=NN2C(=N)/C(=C\c3ccc(OC(=O)c4ccco4)c(OC)c3)C(=O)N=C2S1	-2	-23	-5	-60	9	-9	i	17
COc1ccc(C2N(c3cc(C)on3)C(=O)C3CCCN32)cc1OC (stereo not given)	-9	-12	nt	-2	4	-8	i	2
COc1ccc(/C=C/C(=O)Nc2ccc3nc4n(c(=O)c3c2)CCCC4)cc1	-11	nt	56	-2	-7	-1	i	6
CCc1ccc([C@@H]2CC(=O)[C@@H]3CN(S(=O)(=O)c4ccccc4C)[C@H](c4ccc(Cl)cc4)C[C@@H]3N2S(=O)(=O)c2ccc(C)cc2)cc1	?	-17	nt	-2	-21	nt	nt	nt
C=CCOC(=O)C1=C(C)OC(N)=C(C#N)C1c1c(C)nn(-c2ccccc2)c1Cl (stereo not given)	nt	-10	-7	-5	2	5	i	1
CCOC(=O)C(NC(=O)c1ccccc1)(Nc1cc(C)on1)C(F)(F)F (stereo not given)	-120	nt	-20	5	5	10	i	25
CCCC(=O)C1=C(O)C(C(=O)OC)C(C)(C)CC1=N (stereo not given)	nt	-6	-24	0	5	-3	i	-5

Molecules from the list above that have a nitro group on carbon:
SMILES	Env fusion inh	Yeast UUG start	CSC inhib	MT1-MMP act inh	MT1-MMP act inh RFP	eIF4H inh	Rce1 inh	PABP polyA inh	others
O=C(COc1ccccc1C(=O)O)Nc1nc2ccc([N+](=O)[O-])cc2s1	-7	-13	22	-6	-7	-4	i	2
COCC(O)CSc1c([N+](=O)[O-])nc(C)n1Cc1ccc(OC)c([N+](=O)[O-])c1 (stereo not given)	nt	-22	-5	8	4	4	i	-1

(more compounds)
SMILES	Env fusion inh	Yeast UUG start	CSC inhib	MT1-MMP act inh	MT1-MMP act inh RFP	eIF4H inh	Rce1 inh	PABP polyA inh	others
Cc1cc(N/C=C\c2nnnn2-c2ccccc2)no1	-3	-6	-11	-2	1	5	i	-2
O=c1[nH]c2cc3c(cc2cc1CN(Cc1nnnn1CC1CCCO1)C1CCCC1)OCO3 (stereo not given)	nt	nt	-2	-4	8	76	i	65*	eIF4H inh retest=20;PABP polyA inh retest=64*
O=C(CNC(=O)C(c1ccccc1)c1ccccc1)N/N=C/c1ccc(O)cc1O	-3	nt	133*	1	-8	5	i	3
CN(C(=O)CCNC(=O)Cn1cnc2ccccc2c1=O)c1ccccc1F	7	-14	nt	-1	0	-4	i	2
O=S(=O)(c1ccc2nc(-c3ccco3)c(-c3ccco3)nc2c1)N1CCOCC1	nt	15	-4	-1	4	95*	i	82*	eIF4H inh retest=107*;PABP polyA inh retest=100*
COc1ccc(C(=O)NC(=S)NCCO)cc1Br	nt	nt	1	1	0	-4	i	15
C=CCOC(=O)CCC(=O)Nc1cc(OC)nc(OC)n1	nt	nt	-13	4	6	7	i	0
CN(c1ccccc1)S(=O)(=O)c1cccc(C(=O)NCCc2c[nH]c3ccccc23)c1	21	-11	3	3	-14	nt	i	nt
Cc1cccc(N(CC(=O)NC2CCCCC2)C(=O)Cn2nnc(-c3ccc(C)o3)n2)c1	2	nt	-4	-3	-2	8	i	-1
COC(=O)c1ccc(CSc2ccc3nnc(-c4ccc(F)cc4)n3n2)o1	1	nt	-11	-3	1	14	i	9
O=C(NNC(=S)Nc1ccccc1Cl)c1ccccc1Cl	-30	-34	15	0	3	10	i	9
CC(=O)c1cccc(NC(=O)NC2CCCCCCC2)c1	-32	-11	-15	0	-1	-7	i	0
C/C(=N\NC(=O)c1ccccc1O)c1ccc(Br)s1	-36	nt	-7	7	2	8	i	8
CCc1cccc(CC)c1NC(=O)COC(=O)c1ccc(F)c(S(=O)(=O)N(CC)CC)c1	17	nt	2	9	3	-5	i	-4
Cc1cc(C)c2c(N)c(C(=O)Nc3ccc(C)c(C)c3)sc2n1	-263	-17	-7	9	6	0	i	5
Cc1ccc(NC(=O)C(NC2CCCc3ccccc32)c2ccccc2)c([N+](=O)[O-])c1 (stereo not given)	86*	4	31	-6	-1	16	i	8
CC(C)c1cc(C(=O)NC2CCCCCC2)c2ccccc2n1	30	3	nt	2	-1	nt	nt	nt
Cc1ccc(C)c(OCCC(=O)OCC(=O)N2CCN(c3ccccc3)CC2)c1	nt	34	3	4	0	-10	i	1
CC1(C)CC(=O)C(=CN2CCOCC2)C(=O)C1	6	-15	-5	11	12	-10	i	4
CC(=O)Nc1cccc(NC(=O)COc2ccc3c(c2)CCC3)c1	nt	1	-3	7	-6	nt	nt	nt
Cc1[nH]n2c(=O)c3c(nc2c1-c1ccc(F)cc1)CCCC3	1	nt	6	-3	-4	-4	i	-4
COc1ccccc1-c1cc2nc(C)c(CCC(=O)NCc3ccc(F)cc3)c(C)n2n1	-34	10	3	0	-7	1	i	12
COc1ccc(/C=C2\SC(=O)N(CC(=O)NCCCn3ccnc3)C2=O)cc1	-15	-28	16	1	0	-9	i	-3
O=C(O)CSc1nnc(-c2ccncc2)n1Cc1ccccc1	nt	0	-1	1	6	-2	i	5
COc1cccc(CN2CC(C(=O)NCCOc3ccccc3)CCC2=O)c1 (stereo not given)	-4	10	-14	2	1	-8	i	5
O=C(Cc1ccsc1)NNC(=O)c1ccccc1O	-9	-25	13	8	7	nt	i	nt
CCC(C)NC(=O)CSC1=Nc2ccccc2C2=NC(CC(=O)NCc3ccccc3)C(=O)N12 (stereo not given)	-54	-6	-7	-3	1	0	i	-11

These rows are one share of the data; rates above refer to the full screens.
